High-throughput results: PubChem BioAssay, several laboratories
RGS16-Gao: modulators of RGS16 binding to Galphao, primary screen, biochemical, human proteins, multiplexed bead flow cytometry; bead-based flow cytometry RGS16-Galphao binding, fluorescence; actives lie on both sides; binding response (% of control), % at 10 µM; 220,000 compounds, 0.38% hits; AID 1441, 2008;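 active = below 25% or above 175%, edge rows of some plates excepted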;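 also: Galphao activated by GDP with aluminum fluoride before binding; 100% = wells without compound and 0% = beads without RGS; some results beyond the cut were filed as inactive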
Target sequence (O15492 whole entry, looked up): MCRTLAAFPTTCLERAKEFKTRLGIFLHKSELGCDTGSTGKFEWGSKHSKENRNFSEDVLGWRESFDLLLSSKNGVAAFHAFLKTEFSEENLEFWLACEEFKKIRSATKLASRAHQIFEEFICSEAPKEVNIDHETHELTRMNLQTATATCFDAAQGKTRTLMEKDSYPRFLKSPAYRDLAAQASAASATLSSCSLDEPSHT
Target sequence (P09471 whole entry, looked up): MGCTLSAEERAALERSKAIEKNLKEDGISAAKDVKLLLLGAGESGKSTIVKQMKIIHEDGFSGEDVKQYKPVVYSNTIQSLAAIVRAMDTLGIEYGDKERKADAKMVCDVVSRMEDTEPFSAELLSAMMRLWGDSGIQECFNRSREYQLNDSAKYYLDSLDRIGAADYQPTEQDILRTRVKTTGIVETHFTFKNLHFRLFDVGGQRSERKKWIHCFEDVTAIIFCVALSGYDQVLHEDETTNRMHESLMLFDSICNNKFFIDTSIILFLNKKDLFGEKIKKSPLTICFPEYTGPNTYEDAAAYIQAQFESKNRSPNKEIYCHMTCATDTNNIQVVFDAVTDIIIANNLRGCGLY
PKD1 inh: inhibitors of human PKD1 kinase, biochemical, fluorescence polarization; PKD1 kinase fluorescence polarization assay; inhibition, %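 (about 10 µM by stock and volumes)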; 200,000 compounds, 0.056% hits; AID 797, 2007;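 active = inhibition of 50% or more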;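 also: controls were vehicle for no effect and a reference inhibitor for full effect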
GALR2 ag: GALR2 receptor agonists, primary screen, cell-based; Galanin receptor type 2 (Homo sapiens), O43603; activation, %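 (tested at 5 µM)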; GALR2-expressing cells, agonist activation read-out; 140,000 compounds, 0.48% hits;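 active = above mean plus 3 SD of all compounds, about 5% in these data, not always enough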;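 also: 0% = vehicle buffer wells and 100% = reference agonist at full effect; tested in CHO reporter cells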
Target sequence (O43603 whole entry, looked up): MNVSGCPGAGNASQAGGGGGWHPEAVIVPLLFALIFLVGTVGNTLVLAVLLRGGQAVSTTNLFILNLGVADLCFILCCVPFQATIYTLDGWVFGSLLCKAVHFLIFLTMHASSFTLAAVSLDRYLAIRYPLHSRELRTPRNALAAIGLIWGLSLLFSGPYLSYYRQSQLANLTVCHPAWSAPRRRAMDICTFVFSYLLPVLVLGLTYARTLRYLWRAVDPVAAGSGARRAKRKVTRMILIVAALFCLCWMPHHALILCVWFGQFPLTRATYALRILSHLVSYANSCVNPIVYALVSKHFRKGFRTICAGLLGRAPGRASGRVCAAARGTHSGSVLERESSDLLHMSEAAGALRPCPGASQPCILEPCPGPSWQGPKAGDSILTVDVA
HSV replic up: enhancers of HSV replication in host cells, fold increase, host cell viability; HSV replication augmentation in cells; maximum fold increase; 220,000 compounds, 0.005% hits; AID 1956, 2009;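 active = peak rise of 1.5-fold or more in the series; tested in PC3 cells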;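 also: first round at 10 µM; read as green reporter fluorescence; hits show the peak of a series up to 25 µM; 1 = signal of infected wells without compound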
Insulin prom inh: inhibitors of insulin promoter-driven GFP, primary screen, imaging, TRM-6 cells (human fetal islet line), eGFP reporter, cell count | reporter expression induced with tamoxifen | 130,000 compounds, 0.9% hits | inhibition, % at 2 µM;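 active = inhibition above the mean plus 3 SD, with well images judged a real hit on visual review, cut at about 60% in these data, passing the limit was not always enough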
Insulin prom inh cell count: second read-out of Insulin prom inh, no call of its own (marks repeat the call); normalized cell count, %; measured here: cell count, toxicity; reference of the scale not given here;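 cells exposed to compound for 48 h; stained nuclei by imaging scaled within each plate; lower means fewer cells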
HSV replic up primary fold: also measured in HSV replic up; calls as there; fold increase; compound at 10 µM; measured here: primary screen fold increase 10 uM; tested in PC3 cells;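 GFP signal in the first replicate; 1 = infected wells without compound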
The depositor's hits bear a star; i = inactive; x = no result given.

The first two compounds, ahead of the listing:
cpd	SMILES	GALR2 ag	RGS16-Gao	PKD1 inh	HSV replic up primary fold
1	CN1C(=O)CSc2ccc(C(=O)O)cc21	-0.3	85	-5	0.78
2	CC1CCN(S(=O)(=O)N2CCC(C(=O)NCCC3=CCCCC3)CC2)CC1	x	103	-1	1.2

cpd	Insulin prom inh cell count	HSV replic up	Insulin prom inh
1	x	i	x
2	82	i	-17

This part in full, from the start:
cpd	SMILES	GALR2 ag	RGS16-Gao	PKD1 inh	HSV replic up primary fold
1	CN1C(=O)CSc2ccc(C(=O)O)cc21	-0.3	85	-5	0.78
2	CC1CCN(S(=O)(=O)N2CCC(C(=O)NCCC3=CCCCC3)CC2)CC1	x	103	-1	1.2
3	COC(=O)N(C)c1nc2ccccc2s1	-0.5	106	-6	1
4	CCOC(=O)c1c(C)[nH]c(C(=O)COC(=O)CCSc2ccccc2)c1C	0.9	103	-2	1
5	O=C(Nc1ccc(-n2nncc2-c2ccco2)cc1)c1cc2ccccc2oc1=O	1.2	100	-1	1
6	Cc1ccc2c(c1)-c1ccccc1S(=O)(=O)N2	-1.7	x	-2	0.93
7	Cc1cccc(-n2nnc3c(=O)n(CC(=O)Nc4cc(C)on4)cnc32)c1	x	119	8	0.93
8	Cc1ccc(C)c(N2CCN(C(=O)c3cc4ccccc4oc3=O)CC2)c1	-2.8	106	7	0.8
9	O=C(CN1C(=O)COc2ccccc21)N(Cc1cccnc1)Cc1cccc(F)c1	-0.5	97	-6	1.2
10	CC(=O)Nc1cc(C(=O)N2CCCC2)ccc1Sc1ccc(Cl)cc1	-3.2	106	0	1.2
11	Nc1ccc(C(=O)NCc2ccccc2)cc1	x	100	0	0.92
12	COc1ccc(Oc2nc(-c3cccnc3)nc3ccccc23)cc1	x	91	x	0.97

cpd	Insulin prom inh cell count	HSV replic up	Insulin prom inh
1	x	i	x
2	82	i	-17
3	99	i	18
4	135	i	-33
5	128	i	30
6	x	i	x
7	105	i	0
8	x	i	x
9	86	i	0
10	132	i	-18
11	79	i	-16
12	x	i	x

Continued:
cpd	SMILES	GALR2 ag	RGS16-Gao	PKD1 inh	HSV replic up primary fold
13	COc1ccc(CC(=O)Nc2ccc(S(=O)(=O)NCC3CCCO3)cc2)cc1 (configuration not stated)	-3.7	100	-5	0.86
14	O=C(COc1ncnc2cc([N+](=O)[O-])ccc12)NCCc1ccc(Cl)cc1	x	112	13	0.94
15	NC1=NC2=C(CCCC2)C2(CCCCC2)S1	1.1	103	-6	0.74
16	O=c1cc(CS(=O)(=O)c2ccccc2)nc(-c2ccncc2)[nH]1	x	98	-4	0.95
17	Cc1ccc(CNC(=O)c2cc3c(=O)n(C)c4ccccc4c3n2C)o1	0.7	101	0	1.1
18	CCN(CC)CCCNC(=O)CSc1nc(-c2cccs2)cc(C(F)(F)F)n1	x	107	2	1
19	CNC(=O)CSc1nnnn1CCCOC	-0.2	103	3	0.95
20	COc1ccc(Br)cc1CN(C)C(C)C(=O)Nc1cccc(C(C)=O)c1 (configuration not stated)	x	103	-9	0.88
21	COc1ccccc1CNC(=O)c1cccc(C)c1[N+](=O)[O-]	-0.6	99	-8	0.95
22	Cc1n[nH]c(C)c1N1C(=O)c2cccc3cc(Br)cc(c23)C1=O	-0.5	100	-10	0.92
23	CCOC(=O)c1nc(C)sc1-c1ccnn1S(=O)(=O)c1cccc(Cl)c1	x	104	x	0.98
24	COC(=O)/C=C1/S/C(=N/N=C/c2ccco2)NC1=O	x	97	x	1.2

cpd	Insulin prom inh cell count	HSV replic up	Insulin prom inh
13	115	i	-12
14	46	i	50
15	x	i	x
16	60	i	-331
17	x	i	x
18	x	i	x
19	148	i	-64
20	x	i	x
21	x	i	x
22	75	i	3
23	x	i	x
24	x	i	x

Other entries.
cpd	SMILES	GALR2 ag	RGS16-Gao	PKD1 inh	HSV replic up primary fold
25	COc1ccc(CCCc2nnc(SCc3nc4ccccc4c(=O)[nH]3)n2C)c(C)c1	x	102	x	1.1
26	CCn1c2ccc(F)cc2c2nnc(NN)nc21	0.0	172	-14	0.97
27	COc1ccc(C(=O)CSc2nnc(-c3ccco3)n2CC2CCCO2)cc1 (configuration not stated)	0.0	93	-1	0.97
28	O=C(NC1CCCC1)C1CCCN1C(=O)Oc1ccccc1 (configuration not stated)	x	108	0	0.97
29	CCCc1nc2c(c(=O)c3ccccc3n2C)c(=O)n1-c1cc(C)cc(C)c1	x	98	x	0.93
30	Cc1cc(C(=O)N/N=C/c2ccc(C)o2)c2ccccc2n1	-0.1	100	2	0.64
31	NC(=O)C1CCN(C(=O)C23CC4CC(CC(C4)C2)C3)CC1	-2.7	101	-6	0.92
32	O=C(CSCc1cc(=O)[nH][nH]1)Nc1ccc(F)cc1	x	98	-4	0.95
33	COC(=O)n1c(=O)oc2cc(S(=O)(=O)N3CCOCC3)ccc21	-1.9	100	-2	0.79
34	O=[N+]([O-])c1ccc(S(=O)(=O)CC(CN2CCCCC2)N2CCCCC2)cc1 (configuration not stated)	x	101	-5	0.98
35	COCCn1c(SCCCc2ccccc2)nc2c1c(=O)[nH]c(=O)n2C	-0.5	100	-5	1
36	CCOC(=O)C(C)Oc1ccc2c(C)cc(=O)oc2c1C(C)=O (configuration not stated)	0.7	102	3	1

cpd	Insulin prom inh cell count	HSV replic up	Insulin prom inh
25	x	i	x
26	105	i	13
27	78	i	0
28	x	i	x
29	x	i	x
30	36	i	-80
31	x	i	x
32	x	i	x
33	x	i	x
34	x	i	x
35	x	i	x
36	171	i	-53

Next part:
cpd	SMILES	GALR2 ag	RGS16-Gao	PKD1 inh	HSV replic up primary fold
37	O=C(COC(=O)/C=C/c1cccs1)Nc1cccc(S(=O)(=O)N2CCOCC2)c1	x	98	1	0.87
38	CCc1nnc(NC(=O)c2ccc(S(=O)(=O)NC3CCCCC3)cc2)s1	-0.5	99	-8	1
39	CCc1cc2c(cc(C(=O)O)n2C)s1	-0.9	103	-22	1
40	O=C(Nc1ncc2c(n1)-c1ccccc1OC2)c1ccc(Cl)cc1Cl	-1.2	96	4	0.79
41	CC(C)n1c(SCC(=O)Nc2ccc3c(c2)OCO3)nc2c1c(=O)n(C)c(=O)n2C	2.9	103	-8	0.87
42	CCOC(=O)CSc1nnc(-c2ccc(OC)cc2OC)o1	-0.3	100	-2	0.97
43	Cc1nc(C#N)c(N/N=C/c2c(F)cccc2Cl)o1	-0.9	71	4	x
44	COCCNC(=O)Cn1cc(/C=N/NC(=O)c2ccc(Oc3ccc(O)cc3)cc2)c2ccccc21	x	95	1	0.97
45	CCCc1ncc(C(=O)c2ccc(OC)cc2)n1C	-0.3	99	-7	0.78
46	COc1ccc(C(=O)NCC(=O)n2nc(C)cc2C)cc1OC	0.0	102	4	0.93
47	O=C(NC(=S)NC1CCSC1=O)c1cccs1 (configuration not stated)	-1.9	109	-8	1
48	COC(C(=O)Nc1ccc(S(=O)(=O)Nc2ccc(C)c(C)c2)cc1)c1ccccc1 (configuration not stated)	-1.1	102	-9	0.9

cpd	Insulin prom inh cell count	HSV replic up	Insulin prom inh
37	x	i	x
38	83	i	33
39	x	i	x
40	95	i	-148
41	x	i	x
42	135	i	43
43	132	x	56
44	x	i	x
45	135	i	33
46	103	i	38
47	82	i	23
48	105	i	-4

Another view of seven compounds above:
cpd | Compound | GALR2 ag | RGS16-Gao | PKD1 inh | HSV replic up primary fold | Insulin prom inh cell count | HSV replic up | Insulin prom inh
40 | O=C(Nc1ncc2c(n1)-c1ccccc1OC2)c1ccc(Cl)cc1Cl | -1.2 | 96 | 4 | 0.79 | 95 | i | -148
41 | CC(C)n1c(SCC(=O)Nc2ccc3c(c2)OCO3)nc2c1c(=O)n(C)c(=O)n2C | 2.9 | 103 | -8 | 0.87 | x | i | x
42 | CCOC(=O)CSc1nnc(-c2ccc(OC)cc2OC)o1 | -0.3 | 100 | -2 | 0.97 | 135 | i | 43
43 | Cc1nc(C#N)c(N/N=C/c2c(F)cccc2Cl)o1 | -0.9 | 71 | 4 | x | 132 | x | 56
44 | COCCNC(=O)Cn1cc(/C=N/NC(=O)c2ccc(Oc3ccc(O)cc3)cc2)c2ccccc21 | x | 95 | 1 | 0.97 | x | i | x
45 | CCCc1ncc(C(=O)c2ccc(OC)cc2)n1C | -0.3 | 99 | -7 | 0.78 | 135 | i | 33
46 | COc1ccc(C(=O)NCC(=O)n2nc(C)cc2C)cc1OC | 0.0 | 102 | 4 | 0.93 | 103 | i | 38

Next section.
cpd	SMILES	GALR2 ag	RGS16-Gao	PKD1 inh	HSV replic up primary fold
49	NC(=O)C1(N2CCCCC2)CCN(Cc2ccc(Br)cc2)CC1	x	104	x	0.92
50	CC1CCN(C(=O)CN(c2cccc(F)c2)S(C)(=O)=O)CC1	x	107	0	0.68
51	COC(=O)c1sc(-c2ccccc2)cc1NC(=O)c1cc(OC)cc(OC)c1	-3.3	105	-6	1
52	CC(=O)Nc1ccc(S(=O)(=O)N[C@H](C(=O)O)C(C)C)cc1	-1.7	129	-2	0.91
53	COc1cc(OC)cc(C(=O)N/N=C2/SCC(=O)N2Cc2ccco2)c1	x	124	-5	0.89
54	O=C(CCS(=O)(=O)c1ccccc1Cl)NCc1ccc(F)cc1	x	80	x	1
55	CCN(CC)S(=O)(=O)c1ccc(C(=O)N(c2ccc(C)cc2)C2C=CS(=O)(=O)C2)cc1 (configuration not stated)	x	104	10	0.88
56	CCCc1nnc(NC(=O)CC(=O)Nc2ccccc2C(=O)O)s1	-2.4	93	3	0.98
57	COc1cc(CNCCc2c[nH]c3ccccc23)cc(Cl)c1OCC(N)=O	x	111	1	0.92
58	Cc1ccc(SCc2cc(=O)c3c(=O)n(-c4ccccc4)[nH]c3[nH]2)cc1	x	115	4	0.97
59	CN(C)S(=O)(=O)c1cccc(N=C2NN=C(c3ccccc3)CS2)c1	-0.7	92	8	1.1
60	COc1cccc(S(=O)(=O)NCc2ccc(C(=O)Nc3cccc(Cl)c3)cc2)c1	-4.4	97	-2	0.67

cpd	Insulin prom inh cell count	HSV replic up	Insulin prom inh
49	x	i	x
50	x	i	x
51	145	i	6
52	139	i	8
53	83	i	0
54	x	i	x
55	x	i	x
56	176	i	41
57	103	i	20
58	120	i	5
59	x	i	x
60	112	i	-15

The listing continues.
cpd	SMILES	GALR2 ag	RGS16-Gao	PKD1 inh	HSV replic up primary fold
61	O=C(Nc1ccc(Cl)cc1Cl)N1CCN(c2ncccn2)CC1	x	70	4	0.75
62	Cc1csc(NC(=O)CSc2ccc(-c3ccccn3)nn2)n1	x	85	-9	0.62
63	COc1ccc2c(c1)CCc1c(C(=O)NC3CCCCC3)noc1-2	-1.9	100	-13	0.91
64	CCn1cc(/C=N/NC(=O)COc2cccc3cccnc23)c2ccccc21	-0.9	96	-2	0.9
65	S=C(Nc1ccc(Cl)cc1)N1CCN(Cc2ccccc2)CC1	x	107	-7	0.95
66	COc1ccc(-c2ccc(C(C)=O)cc2)cc1[C@H]1[C@H]2C=CC[C@@H](C)[C@@H]2C(=O)N1Cc1ccccc1	x	101	x	0.89
67	COc1cccc(NC(=O)c2ncc(Cl)c(Cl)c2Cl)c1	x	98	-5	0.91
68	Cc1cc2ncc(Cl)nc2cc1C	-2.6	81	-4	0.86
69	O=C(NCCN1C(=O)S/C(=C\c2ccccc2F)C1=O)C1CCCN1C(=O)c1cccs1 (configuration not stated)	0.1	111	4	0.97
70	N/C(=N\OC(=O)c1ccc(Cl)cc1)c1[nH]ncc1Br	x	100	x	0.86
71	CCOC(=O)C1C(=O)CC(=O)CC1CC(C)SCC (configuration not stated)	-0.6	107	-4	0.9

cpd	Insulin prom inh cell count	HSV replic up	Insulin prom inh
61	x	i	x
62	97	i	-8
63	105	i	-85
64	117	i	17
65	x	i	x
66	x	i	x
67	x	i	x
68	147	i	7
69	x	i	x
70	x	i	x
71	65	i	-11
